BJeLR viability = BJeLR cell viability loss, primary screen, luminescence, CellTiterGlo ATP; AID 2275, 2010; viability loss activity score, % (test concentration not listed); BJeLR fibroblasts viability, 48 h; HRASV12, hTERT and SV40 LT/ST transformed; 30,000 tested, 0.64% active; in the data active = viability loss activity score above about 50%; inconclusive = no clear call, values can overlap the other calls; inactive = below about 35%; about a fifth of its hits are not listed in these tables;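 note: higher score means fewer live cells and less ATP luminescence; stock transfer was 50 or 100 nL into about 30 µL; 0% = vehicle wells and 100% = a reference killing control; one replicate is shown; the record names a cut of 85%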
A1 inh = inducers of caspase activity in MEF A1-2A-BIM cells, primary screen, A1 inhibitor project, cell-based, CaspaseGlo luminescence. caspase-Glo luminescence, 3 h; percent of clofoctol signal, DMSO as zero. caspase activation, % (test concentration not listed). 21,000 tested, 0.51% active;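 active = most replicate scores above 10, or exactly half above 10 with mean activity above 10; inconclusive = mean activity below 10 while half the replicates exceed 10; inactive = most replicate scores below 10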;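 note: effector caspase 3 and 7 activity cleaving a DEVD luciferin substrate; 50 nL library stock added to about 30 µL; numbers are from one replicate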
Active calls of the source: *; ? = inconclusive; . = not tested or not shown.

SMILES	BJeLR viability	A1 inh
C[C@@H]1CN([C@H](C)CO)C(=O)c2cccc(NS(C)(=O)=O)c2O[C@H]1CN(C)C(=O)Nc1ccc(C(F)(F)F)cc1	-5.8	.
C[C@@H]1CN([C@H](C)CO)C(=O)c2cc(NS(=O)(=O)c3ccc(Cl)cc3)ccc2O[C@H]1CN(C)Cc1ccc(Cl)c(Cl)c1	-3.3	-0.2
C[C@H]1CN([C@@H](C)CO)C(=O)c2cccc(NC(=O)c3nc4ccccc4s3)c2O[C@H]1CN(C)C(=O)Nc1ccc(C(F)(F)F)cc1	-2.7	.
S=C(NC1CCCCC1)C12CCC3CC(CC(C3)C1)C2	18	0.6
C[C@@H]1CN([C@H](C)CO)C(=O)c2cccc(NS(=O)(=O)c3cccs3)c2O[C@@H]1CN(C)C(=O)Nc1ccc(F)cc1	-1.5	.
O=C(NC1CCCC1)c1cc2nc(-c3ccccc3)cc(-c3ccccc3)n2n1	0.6	0.2
C[C@H]1CN([C@@H](C)CO)C(=O)c2cc(NC(=O)CCCCCC(=O)Nc3ccccc3N)ccc2O[C@@H]1CN(C)CC1CCCCC1	1.1	.
COc1ccc(CN(C)C[C@H]2Oc3c(NS(=O)(=O)c4ccc(F)cc4)cccc3C(=O)N([C@H](C)CO)C[C@H]2C)cc1	8.0	.
COC(=O)c1cc(C2CC2)[nH]n1	-2.1	-0.2
Cc1noc(C)c1S(=O)(=O)N(C)C[C@H]1Oc2ccc(NS(=O)(=O)c3ccc(F)cc3)cc2C(=O)N([C@@H](C)CO)C[C@H]1C	-4.5	-0.4
CN(C)CCc1c[nH]c2ccc(CS(=O)(=O)N3CCCC3)cc12	1.8	0.8
CCCCOc1cc(CC2CNC(=O)N2)ccc1OC (stereo not given)	-3.2	0.2
COc1ccc2c(=O)cc(-c3ccccc3)oc2c1	-7.4	-0.8
S=c1[nH]nc(Cc2ccccc2)n1Cc1ccccc1	3.5	-0.2
CCSc1nc2sc3c(c2c2n[nH]c(=S)n12)CCCC3	-7.4	.
CCc1ccccc1NC(=O)CCn1c(=O)c2cccn2c2ccccc21	-3.4	-0.3
COc1ccc(NC(=O)N(Cc2ccc(C)cc2)Cc2ccccn2)c(OC)c1	-3.3	0.2
CCN1CCCC1CNC(=O)c1ccc(-n2c(-c3ccccc3)cc3c2CCCC3)cc1 (stereo not given)	8.0	1.4
CCOC(=O)c1oc2ccc3c(c2c1C)C(=O)CC(C)(C)O3	3.4	-0.5
Cc1noc(C)c1S(=O)(=O)Nc1ccc2c(c1)C(=O)N([C@@H](C)CO)C[C@@H](C)[C@@H](CN(C)Cc1ccc3c(c1)OCO3)O2	-2.7	-0.6
O=C(NCc1ccco1)c1ccccc1C(=O)c1ncc[nH]1	-0.5	0.6
Cc1cc(C(=O)SCc2ccccc2)nn1Cc1c(Cl)cccc1Cl	0.1	0.7
O=C(NCc1ccc(Cl)cc1)c1ccc(Br)o1	-1.2	-0.4
CC1CC(=O)N(c2ccc(OC(F)(F)F)cc2)C1=O (stereo not given)	-2.9	.
C[C@H]1CN([C@@H](C)CO)C(=O)c2cc(NC(=O)NC3CCCCC3)ccc2O[C@@H]1CN(C)C(=O)Nc1ccc(C(F)(F)F)cc1	19	-0.2
Later entries:
SMILES	BJeLR viability	A1 inh
O=C(Oc1ccc(C=Nc2ccc(F)cc2)cc1)c1ccco1	-5.8	0.4
CC1CC(C)(C)NC(=S)N1CCCC(=O)NCc1ccccc1 (stereo not given)	-4.2	.
COc1ccc2c(c1)CCc1c-2nc2ccc(Br)cc2c1C(=O)O	-2.4	-0.6
CC(Cc1ccccc1)NC(=O)CC(c1ccccc1)c1cc(Br)ccc1O (stereo not given)	-5.5	1.9
Cc1noc(C)c1NC(=O)N(C)C[C@@H]1Oc2c(NC(=O)Nc3ccc(C(F)(F)F)cc3)cccc2C(=O)N([C@@H](C)CO)C[C@@H]1C	-3.8	.
CN1CCN(CCCN2C(=O)CSC2c2ccc(F)cc2)CC1 (stereo not given)	-0.8	1.1
COc1ccc(/C=N/n2cnnc2)cc1	1.5	-0.4
O=C(CSc1nc2ccsc2c(=O)n1Cc1ccccn1)c1ccccc1	0.5	-0.2
Cc1noc(C)c1S(=O)(=O)Nc1cccc2c1O[C@@H](CN(C)Cc1ccc(Oc3ccccc3)cc1)[C@@H](C)CN([C@H](C)CO)C2=O	-0.8	.
Cc1noc(C)c1NC(=O)Nc1ccc2c(c1)C(=O)N([C@H](C)CO)C[C@H](C)[C@H](CN(C)S(C)(=O)=O)O2	-2.8	0.0
C[C@H](CO)N1C[C@H](C)[C@H](CN(C)S(=O)(=O)c2cccs2)Oc2c(NC(=O)Nc3ccc(C(F)(F)F)cc3)cccc2C1=O	-0.1	.
CC(=O)O[C@H]1C[C@@]2(C)[C@@H](C[C@@H](O)[C@H]3[C@@]4(C)CC[C@@H](O)[C@@H](C)C4CC[C@@]32C)/C1=C(\CCC=C(C)C)C(=O)O (stereo not given in full)	1.5	0.1
On1c(-c2ccccc2Cl)nc2c1CCc1nonc1-2	2.3	0.6
c1ccc(-c2ccccc2NC2=NCCS2)cc1	-3.6	0.0
COc1ccc(NC(=O)Nc2cccc3c2O[C@H](CN(C)C)[C@H](C)CN([C@H](C)CO)C3=O)cc1	3.1	.
Cc1ccc(S(=O)(=O)Nc2cccc3c2O[C@@H](CN(C)S(=O)(=O)c2ccc(C)cc2)[C@@H](C)CN([C@H](C)CO)C3=O)cc1	-1.0	.
Cc1noc(C)c1NC(=O)N(C)C[C@H]1Oc2c(NC(=O)Nc3ccc4c(c3)OCO4)cccc2C(=O)N([C@H](C)CO)C[C@H]1C	-3.7	.
CC(=O)N(C)CCc1ccc(C)[n+]([O-])c1	-0.9	0.1
O=C(NCCc1ccccc1)c1cc(-c2ccccc2)c(N2CCOCC2)s1	-4.5	.
Cc1nc(SCC(=O)O)c2c3c(sc2n1)CCCC3	1.5	-0.4
C[C@H](CO)N1C[C@H](C)[C@H](CN(C)Cc2ccc(C(=O)Nc3ccccc3N)cc2)Oc2ccc(NS(=O)(=O)c3cccs3)cc2C1=O	7.8	.
O=C(CC1SC(=O)NC1=O)Nc1cccc(C(F)(F)F)c1 (stereo not given)	-5.7	-0.7
CN(C)CCNC(=O)Cn1ncc2c(=O)oc3ccccc3c21	-3.8	.
COc1ccc(S(=O)(=O)Nc2nc3ccccc3s2)cc1OC	0.6	.
C=CCN1CCN(c2nc3ccccc3nc2C#N)CC1	-2.2	-1.0
(further entries)
SMILES	BJeLR viability	A1 inh
COc1ccc(CN(C)C[C@@H]2Oc3c(NC(=O)Nc4ccc5c(c4)OCO5)cccc3C(=O)N([C@H](C)CO)C[C@@H]2C)cc1	-3.9	.
COc1ccc(NC(=O)N(C)C[C@H]2Oc3c(NC(=O)c4cnccn4)cccc3C(=O)N([C@@H](C)CO)C[C@@H]2C)cc1	7.3	.
Cc1cc(=O)oc2cc(OCC(=O)NCc3cccnc3)ccc12	0.4	0.8
Fc1ccc2[nH]cc(CCCN3CCN(c4nc5cc(Cl)ccc5s4)CC3)c2c1	8.8	.
CC1OC(NC(=O)c2ccccc2F)C(NC(=O)c2ccccc2F)OC1C (stereo not given)	1.1	0.8
C[C@@H]1CN([C@@H](C)CO)C(=O)c2cccc(NS(=O)(=O)c3cccs3)c2O[C@@H]1CN(C)Cc1ccc(C(F)(F)F)cc1	-6.4	.
O=C(c1cc(C(F)(F)F)cc(C(F)(F)F)c1)N1CCC(O)(c2ccc(Cl)cc2)CC1	8.3	.
Cc1sc2ncnc(Oc3cccc(C(F)(F)F)c3)c2c1-c1ccccc1	-0.3	-1.0
Cc1ccc(SCc2cccc(C(=O)N3CCN(c4ncccc4C(F)(F)F)CC3)c2)cc1	3.1	-0.5
CCS(=O)(=O)N1CCCC(C(=O)NCc2cccnc2)C1 (stereo not given)	-1.9	-0.6
Cc1oc(S(=O)(=O)N2CCCC2)cc1C(=O)NCc1ccc2c(c1)OCO2	3.3	-0.8
c1ccc2c(c1)COC(CN1CCCCC1)OC2	-1.2	0.5
C=C(C)[C@@H]1CC[C@]2(C(=O)O)CC[C@]3(C)[C@H](CC[C@@H]4[C@@]5(C)CC[C@H](O)C(C)(C)[C@@H]5CC[C@]43C)[C@@H]12	-4.0	?
COc1ccc(S(=O)(=O)N(C)C[C@@H]2Oc3c(NS(=O)(=O)c4ccc(Cl)cc4)cccc3C(=O)N([C@H](C)CO)C[C@H]2C)cc1	-1.0	.
CCc1cccc(NC(=O)C(Cc2ccccc2)NC(=O)C2CCC(C)CC2)c1 (stereo not given)	-4.8	.
C[C@H](CO)N1C[C@H](C)[C@@H](CN(C)Cc2ccc(Oc3ccccc3)cc2)Oc2c(NS(=O)(=O)c3ccc(Cl)cc3)cccc2C1=O	-5.3	.
O=C(CC(c1ccccc1)C1C(=O)NC(=S)NC1=O)c1cccs1 (stereo not given)	-4.6	.
COc1ccc(S(=O)(=O)N(C)C[C@H]2Oc3ccc(N(C)C)cc3C(=O)N([C@@H](C)CO)C[C@@H]2C)cc1	0.7	0.0
Cc1cc(C(=O)Nc2cccc3c2O[C@H](CN(C)Cc2ccccc2)[C@H](C)CN([C@H](C)CO)C3=O)n(C)n1	-3.1	.
CC(C)NC(=O)Nc1cccc2c1O[C@H](CN(C)CC1CCCCC1)[C@@H](C)CN([C@H](C)CO)C2=O	-3.1	.
CCc1ccc(N(CC)C(=O)c2cc3c(=O)n(CC)c4ccccc4c3s2)cc1	-3.3	.
COc1ccc(CN2C(=S)N(c3ccccc3)C(=O)C2CC(=O)Nc2ccccc2)cc1 (stereo not given)	1.9	1.1
C[C@H]1CN([C@@H](C)CO)C(=O)c2cc(NS(=O)(=O)c3ccc(Cl)cc3)ccc2O[C@H]1CN(C)CC1CC1	4.4	-0.5
C[C@@H]1CN([C@H](C)CO)C(=O)c2cccc(NS(=O)(=O)c3ccc(Cl)cc3)c2O[C@H]1CN(C)Cc1ccc(Cl)c(Cl)c1	-2.5	.
C[C@@H]1CN([C@H](C)CO)C(=O)c2cccc(NS(C)(=O)=O)c2O[C@@H]1CN(C)CC1CCCCC1	0.8	.

Single records (already shown). Screens in order: BJeLR viability | A1 inh
`Cc1oc(S(=O)(=O)N2CCCC2)cc1C(=O)NCc1ccc2c(c1)OCO2` in the list: 3.3 | -0.8
`Fc1ccc2[nH]cc(CCCN3CCN(c4nc5cc(Cl)ccc5s4)CC3)c2c1` in the list: 8.8 | .

3 compounds picked at random from those above:
SMILES	BJeLR viability	A1 inh
Cc1oc(S(=O)(=O)N2CCCC2)cc1C(=O)NCc1ccc2c(c1)OCO2	3.3	-0.8
Cc1ccc(SCc2cccc(C(=O)N3CCN(c4ncccc4C(F)(F)F)CC3)c2)cc1	3.1	-0.5
CCc1ccc(N(CC)C(=O)c2cc3c(=O)n(CC)c4ccccc4c3s2)cc1	-3.3	.

The list goes on.
SMILES	BJeLR viability	A1 inh
C[C@H](CO)N1C[C@H](C)[C@H](CN(C)Cc2ccc(Oc3ccccc3)cc2)Oc2c(NC(=O)Nc3ccc(C(F)(F)F)cc3)cccc2C1=O	-0.5	.
CC(C)NC(=O)C(C)n1c2ccccc2c2cnn(C)c(=O)c21 (stereo not given)	-2.4	-0.6
COc1ccc(NC(=O)N(C)C[C@H]2Oc3ccc(NC(=O)CCCN(C)C)cc3C(=O)N([C@H](C)CO)C[C@@H]2C)cc1	1.8	-0.3
COC(=O)C(Cc1c[nH]c2ccccc12)NC(=O)C(NC(=O)C(C)NC(=O)/C=C/C(=O)O)C(C)c1c[nH]c2ccccc12 (stereo not given)	-0.1	0.5
O=C(Cn1c2c(c(-c3ccccc3)cc1=O)CCCC2)NCc1ccc(Cl)cc1	6.4	-1.0
COc1ccc(CCNC(=O)CCn2c(=O)oc3ccccc32)cc1OC	-1.5	.
O=C(O)Cn1cnc(-c2ccc(Br)cc2)c1	0.3	.
C[C@@H]1CN([C@H](C)CO)C(=O)c2cccc(NS(=O)(=O)c3cccs3)c2O[C@@H]1CN(C)S(=O)(=O)c1cn(C)cn1	-1.7	.
Cc1noc(C)c1S(=O)(=O)Nc1ccc2c(c1)C(=O)N([C@@H](C)CO)C[C@H](C)[C@@H](CN(C)Cc1ccc(C(F)(F)F)cc1)O2	-0.1	-0.7
COc1ccc(NC(=O)Nc2ccc3c(c2)C(=O)N([C@@H](C)CO)C[C@H](C)[C@@H](CN(C)CC2CCCCC2)O3)cc1	0.0	-0.1
COC(CNC(=O)c1cc(Sc2nnc(C)s2)nc2ccccc12)OC	-7.2	0.7
Cc1cccc(-c2noc(CN(C(=O)/C=C/c3ccccc3Cl)C(C)C)n2)c1	-8.6	.
Cc1cc(C(=O)Nc2cccc3c2O[C@@H](CN(C)C(=O)Nc2ccc(F)cc2)[C@@H](C)CN([C@@H](C)CO)C3=O)n(C)n1	-4.3	.
C=CCN1C(=O)C2(c3ccccc31)C(C(=O)c1ccccc1)C(=O)C(=O)N2CCOC (stereo not given)	-4.0	-0.6
CSC1=N/C(=C\c2ccc(Br)cc2)C(=O)S1	-2.3	-0.2
C[C@H](CO)N1C[C@H](C)[C@H](CN(C)Cc2ccc(Cl)c(Cl)c2)Oc2c(NS(=O)(=O)c3ccc(Cl)cc3)cccc2C1=O	8.4	.
C/C=C1\C2C=C(C)CC1(N)c1ccc(=O)[nH]c1C2 (stereo not given)	-1.7	0.3

Part of the list above in order of length of the SMILES, largest number first.
SMILES	BJeLR viability	A1 inh
C[C@H](CO)N1C[C@H](C)[C@H](CN(C)Cc2ccc(Oc3ccccc3)cc2)Oc2c(NC(=O)Nc3ccc(C(F)(F)F)cc3)cccc2C1=O	-0.5	.
COc1ccc(NC(=O)N(C)C[C@H]2Oc3ccc(NC(=O)CCCN(C)C)cc3C(=O)N([C@H](C)CO)C[C@@H]2C)cc1	1.8	-0.3
COc1ccc(CCNC(=O)CCn2c(=O)oc3ccccc32)cc1OC	-1.5	.

Some of the compounds tested, so the mix of outcomes need not match the whole.
